StopGo FLuc: FMDV 2A StopGo reporter, firefly signal; Potency, µM (titrated, usually from 57.5 µM), inactives show at the top dose signal change, negative = less light; 120,000 tested, 0.23% active; HEK cells with a luciferase reporter of 2A StopGo recoding; AID 1745856; active = well fitted falling curve with a large enough effect; inconclusive = small, poorly fitted or top-dose-only effect; inactive = no such curve, though single readings can be large or run the other way; further: nearly all actives have a fitted effect of over 60% in size; overnight with compound
StopGo RLuc: lowers the Renilla signal of an FMDV 2A StopGo reporter. HEK cells with a luciferase reporter of 2A StopGo recoding. Potency, µM (highest dose often 57.5 µM), inactives show at the highest dose signal change, negative = less light. 120,000 tested, 0.32% active. AID 1745857; active means well fitted falling curve with a large enough effect; inconclusive means small, poorly fitted or top-dose-only effect; inactive means no such curve, though single readings can be large or run the other way; further: nearly all actives have a fitted effect of over 55% in size; overnight with compound
An asterisk follows results filed as active; ? = inconclusive; & = joins results of further samples; [ ] = another dose, or the depositor's remark. On the % scale 0 is the no-effect control and ±100 the full control effect; potency means the concentration at half of the fitted maximal effect.

SMILES	StopGo FLuc	StopGo RLuc
CCCOc1ccc(/C=C(/C#N)c2nc3ccccc3[nH]2)c(OCCC)c1	31%[activator]	22%
CCOc1ccc(-c2cc(C(=O)N3CCN(c4ncccn4)CC3)c3ccccc3n2)cc1	123%[activator]	5%
Cc1ccc(-n2nc(C)c3c(C)cc(=O)n(CC(=O)Nc4cccc(C)c4C)c32)cc1	-1%	-4%
CCCNC(=O)NC(=O)CN(Cc1ccco1)C1CC1	-1%	13%
CC(C)(C)C(=O)Nc1nnc(Cc2ccccc2F)s1	48%[activator]	16%
CCN(CC)c1nc2ccccc2nc1C(=O)Nc1cc(C)cc(C)c1	21%	25%
CC1(C(Cl)(Cl)Cl)C=CC(=Nc2ccccc2)C=C1 (centres undefined)	4%	6%
COc1cccc(CNC(=O)CCc2nnc3n(CC(C)C)c(=O)c4ccccc4n23)c1	0%	-11%
CCCCN(CCCC)c1nc(-c2ccccc2)cc(-c2ccccc2)c1C#N	8%	4%
COc1ccccc1CNC(=O)CC(c1ccc(OC)c(OC)c1)N1Cc2ccccc2C1=O (centres undefined)	1%	109%[activator]
c1ccc2cc(CN3CCN(Cc4c[nH]c5ccccc45)CC3)ccc2c1	-22%	-20%
CCOC(=O)C1CCCN(S(=O)(=O)c2ccc(N3CCCCS3(=O)=O)cc2)C1 (centres undefined)	-7%&0%	0%&1%
CCc1ccc(-n2nc(-c3nc4ccccc4s3)c(N)c2C(=O)OC)cc1	24%	1%
O=c1c2ccccc2c(-c2cccs2)nn1CC(O)COCc1ccc(Cl)cc1 (centres undefined)	-3%	3%
Cc1c(C(=O)Nc2ccc3oc(-c4ccc(F)cc4)nc3c2)cccc1[N+](=O)[O-]	40%[activator]	11%
COc1cc2c(=O)n(CCc3ccccc3)c(=O)n(CC(=O)Nc3ccccc3)c2cc1OC	-1%	-11%
CCc1cccc(NC(=O)c2nc3ccccc3nc2N(CC)CC)c1	-1%	6%
O=C(CSc1ncnc2sc3c(c12)CCCC3)Nc1ccc2c(c1)OCCO2	89%[activator]	-1%
CCc1ccccc1N1CC(c2nc3ccccc3n2CCOc2ccc(Cl)c(C)c2)CC1=O (centres undefined)	?	?
Cc1nn(C(=O)c2ccc(Br)cc2)c(C)c1Sc1ccccc1	5%	-14%
Oc1c(C(c2ccc(Cl)cc2Cl)N2CCN(Cc3ccccc3)CC2)sc2nc(-c3ccco3)nn12 (centres undefined)	-14%	1%
CCOC(=O)CC(=O)CSc1nc2ccccc2c(=O)n1-c1ccc(C(=O)NCCOC)cc1	-4%	-4%
CCc1ccccc1NC(=O)N1CCC(N2CCN(Cc3ccccn3)C(=O)C2=O)CC1	7%	-3%
CC(C)c1nnc2ccc(N3CCCC(C(=O)NCCc4ccc(F)cc4)C3)nn12 (centres undefined)	7%	3%
CCc1ccccc1NC(=O)c1nc2ccccc2nc1N1CCCC1	-15%	-6%
O=C1CN(C(=O)CCn2c(-c3ccccc3)cc3ccccc32)CCN1	3%	29%
Cc1cccc(Cn2cc3c(=O)n(CC(=O)Nc4ccc(C)c(F)c4)nc-3c3cc(F)ccc32)c1	-17%	-7%
O=C(O)c1cc(-c2cccs2)nc2ccccc12	16%	-16%
O=C(NC1CCCCCCC1)c1cc(C(F)(F)F)cc(C(F)(F)F)c1	-3%	-7%[1.06 µM]
O=C(/C=C/c1cnc2ccccc2n1)NCc1cccnc1	106%[activator]	-14%
O=C(/C=C/c1ccc(Cl)cc1)c1ccc(O)cc1	49%[activator]	6%
Cc1ccc(NC(=O)Cc2nnc(SCC(=O)NC34CC5CC(CC(C5)C3)C4)n2C)cc1C	0%	6%
COc1ccc(C)cc1NC(=O)N1CCCC1c1cccs1 (centres undefined)	-3%	18%
CC(C)(C)c1cc(C#N)cc(C(C)(C)C)c1O	18%	11%
Cc1ccc2oc(-c3ccc(C)c(NC(=O)c4cccs4)c3)nc2c1	47%[activator]	3%
O=C(CN1CCCC1)NCCCc1ccccc1	7%	-1%
O=C(Cc1csc2ccccc12)NCc1ccccc1F	?	?
Cc1ccc(-c2[nH]c(-c3ccccc3)nc2SCC(=O)Nc2nccs2)cc1	?	-12%
CCS(=O)(=O)N1CCC(Nc2nc3ccccc3o2)CC1	0%	6%
Cc1oc(-c2nc(C#N)c(N3CCN(C)CC3)o2)cc1S(=O)(=O)N(C)c1ccccc1	0%	14%
CC1=C(c2ccc(C)c(C)c2)S(=O)(=O)NC1=NCc1ccccc1Cl	0%	78%[activator]
COc1ccc2c(c1)c1c(c(=O)n(Cc3ccccc3)c(=O)n1CC(=O)Nc1ccccc1OC)n2C	-8%	-7%
CN(C)CCNc1oc(-c2ccc(F)cc2)nc1C#N	0%	7%
CCCCn1c(N)c(N(CCOC)C(=O)c2cc(-c3ccncc3)nc3ccccc23)c(=O)[nH]c1=O	17%	5%
CCOc1ccc(/C=C/c2nc3ccccc3n2S(=O)(=O)c2cccc(Cl)c2)cc1	-83%	-3%

Whole records from above:
Profile of CCc1ccccc1NC(=O)N1CCC(N2CCN(Cc3ccccn3)C(=O)C2=O)CC1 → StopGo FLuc: 7%; StopGo RLuc: -3%
Profile of CCCCn1c(N)c(N(CCOC)C(=O)c2cc(-c3ccncc3)nc3ccccc23)c(=O)[nH]c1=O → StopGo FLuc: 17%; StopGo RLuc: 5%

Next part
SMILES	StopGo FLuc	StopGo RLuc
COc1ccc(C)cc1NC(=O)c1ccc2c(=O)n3c(nc2c1)CCCCC3	5%&20%	-7%&-13%
COc1ccc(-c2c(C)c3ccc(OCC(=O)OC(C)C)cc3oc2=O)cc1	25%	5%
CCCN1CCN(CCNC(=O)Nc2cc(OC)cc(OC)c2)CC1	-11%	-11%
Cc1cc(C)c(NC(=O)COc2ncnc3ccccc23)c(C)c1	-5%	-6%
CC(C)CCn1c(Cl)nc2c1c(=O)n(C)c(=O)n2C	-9%	-10%
CC(=O)c1cccc(Nc2nc(-c3ccccc3)nc3ccccc23)c1	0%	34%[activator]
COc1ccc(N=C2NN=C(c3cc(C)n(CC4CCCO4)c3C)CS2)cc1 (centres undefined)	4%	-9%
O=C(CCc1c[nH]c2ccccc12)NN1C(=O)NC2(CCCCC2)C1=O	-4%	-6%
O=C(N/N=C\c1cccs1)c1cnccn1	0%	1%
Cc1csc2nc(COC(=O)c3cccc(NC(=O)c4cccc(Cl)c4)c3)cc(=O)n12	-8%	-9%
COc1ccccc1CNC(=O)CCC1N=C2c3ccccc3N=C(SCC(=O)NCCc3ccc(OC)c(OC)c3)N2C1=O (centres undefined)	-1%	6%
O=C(CCc1nc2ccccc2[nH]c1=O)OCc1cccc(Cl)c1	4%	4%
CCOc1ccc(-c2cn3c(n2)sc2cc(C(=O)N4CCCC(C)C4)ccc23)cc1 (centres undefined)	12%	3%
COCCNC(=O)Cn1ncc2c(C)n(Cc3ccc(C)cc3)c(C)c2c1=O	-4%	0%
O=C(Nc1ccccc1C(F)(F)F)N1CCN(c2ccc3nnc(-c4ccc(F)cc4)n3n2)CC1	49%[activator]	21%
CC(OC(=O)c1ccc2ccccc2n1)C(=O)Nc1ccc(N2CCOCC2)cc1 (centres undefined)	42%[activator]	-20%
N#Cc1ccc(Cl)cc1NC(=O)COC(=O)c1cccc(S(=O)(=O)N2CCCCCC2)c1	52%[activator]	11%
c1ccc(Cn2ccnc2)c(CNC2CCCCCC2)c1	-3%	-3%
N#CC1=C(SCC(=O)Nc2ccc3ccccc3c2)NC(=O)CC1c1ccccc1F (centres undefined)	36%[activator]	33%[activator]
CC(C)(C)C1CCC(OCC(O)CN(CCO)CCO)CC1 (centres undefined)	33%[activator]	7%
O=C(O)CCC(=O)c1cccnc1	5%	4%
Cc1ccccc1NC(=O)C(=O)c1c[nH]c2ccccc12	173%[activator]	3%
CCCCc1nn2c(=O)cc(COC(=O)c3ccc(NC(=O)CCc4ccccc4)cc3)nc2s1	-15%	-8%
CCOc1ccccc1NS(=O)(=O)c1c(C)cc(C)cc1C	-5%	84%[activator]
COc1ccc(CN(C)Cc2cc(=O)n3[nH]c(-c4cccc(C)c4)cc3n2)cc1	110%[activator]	-3%
Cc1ccc(Nc2nc(NCCCc3ccccc3)nc3nccnc23)cc1	33%[activator]	10%
CC(c1ccc(Cl)cc1)N(C)C(=O)CCc1ncc(-c2ccc(Cl)cc2)o1 (centres undefined)	-10%	-27%
CCC(=O)N1CCc2cc(Br)cc(S(=O)(=O)NCc3ccc(Cl)cc3)c21	-10%	153%[activator]
CN(C)c1ccc(C(CNC(=O)c2ccccc2C(F)(F)F)N2CCOCC2)cc1 (centres undefined)	1%	9%
Cc1ccc(N2C(=O)[C@@H]3CSC(c4ccc(C(F)(F)F)cc4)N3C2=O)cc1 (some centres undefined)	21%	-6%
COc1ccc(Oc2c(C)oc3cc(O)ccc3c2=O)cc1	12%	10%
CCOC(=O)c1cnc2ccc(C(=O)OC)cc2c1Nc1ccc(C(C)=O)cc1	0%	1%
CC(=O)c1ccccc1NC(=O)CCc1ncc(-c2c(F)cccc2F)o1	7%	4%
N#CCCN1CCN(C(C(=O)O)c2cn(CC(=O)O)c3ccc(Br)cc23)CC1 (centres undefined)	8%	0%
CC(=O)N1CCC(C(=O)Nc2nc(-c3ccc(Br)s3)cs2)CC1	-33%	?
CNC(=S)N/N=C1/CCCCC1C (centres undefined)	0%	16%
CCc1cccc(OCC(=O)Nc2ccc(S(=O)(=O)Nc3ncccn3)cc2)c1	2%	-8%
CC(Sc1nccn1C)C(=O)Nc1ccccc1C#N (centres undefined)	2%	-2%
Cc1ccc(NC(=O)CSc2nc3cc([N+](=O)[O-])ccc3o2)cc1C	98%[activator]	40%[activator]
COc1ccc(OC)c(CNC(=O)c2ccc(N3Cc4ccccc4Oc4ncccc43)s2)c1	7%	8%
Cc1nc(CCNC(=O)N2CCN(Cc3ccco3)CC2)cs1	30%[activator]	-7%
Cc1ccc(C(=O)OCC(=O)c2ccco2)s1	45%[activator]	9%
O=C(NC1CCS(=O)(=O)C1)C1CCN(C2=NS(=O)(=O)c3ccccc32)CC1 (centres undefined)	2%	-10%
Cc1cc(NC(=O)C(C)(C)Oc2ccc(Cl)cc2)no1	4%	7%
COc1cccc(CNC(=O)C(NS(=O)(=O)c2ccc3c(c2)oc(=O)n3C)C(C)C)c1 (centres undefined)	-15%	-7%

Already shown: 7 of the compounds above.
SMILES	StopGo FLuc	StopGo RLuc
Cc1ccc(NC(=O)CSc2nc3cc([N+](=O)[O-])ccc3o2)cc1C	98%[activator]	40%[activator]
COc1ccc(OC)c(CNC(=O)c2ccc(N3Cc4ccccc4Oc4ncccc43)s2)c1	7%	8%
Cc1nc(CCNC(=O)N2CCN(Cc3ccco3)CC2)cs1	30%[activator]	-7%
Cc1ccc(C(=O)OCC(=O)c2ccco2)s1	45%[activator]	9%
O=C(NC1CCS(=O)(=O)C1)C1CCN(C2=NS(=O)(=O)c3ccccc32)CC1 (centres undefined)	2%	-10%
Cc1cc(NC(=O)C(C)(C)Oc2ccc(Cl)cc2)no1	4%	7%
COc1cccc(CNC(=O)C(NS(=O)(=O)c2ccc3c(c2)oc(=O)n3C)C(C)C)c1 (centres undefined)	-15%	-7%

The listing continues.
SMILES	StopGo FLuc	StopGo RLuc
CCc1cccc(CC)c1NC(=O)c1c(C)oc2ccc(O)c(CN3CCOCC3)c12	-14%	-5%
CCCCOCCCNC(=O)c1cc(-c2ccncc2)nc2ccccc12	-15%	-12%
CCC(Cn1nnc2ccccc2c1=O)NC(=O)Nc1ccc(C)cc1 (centres undefined)	-3%	18%
Cc1nc2c3ccccc3nn2c(C)c1CCC(=O)Nc1cccc(F)c1	-6%	-16%
Fc1ccc(-n2ncc3c(NC4CCCC4)ncnc32)cc1	206%[activator]	1%
Cn1c(=O)c2c(nc(CN3CCN(Cc4ccccc4)CC3)n2CCCc2ccccc2)n(C)c1=O	-29%	-31%
Cc1ccc(OCCN(C)C(=O)c2ccc3[nH]c(C)c(C)c3c2)cc1	5%	4%
COc1ccc(CNC(=O)CN(C)c2nn3c(=O)cc(C)nc3s2)cc1	-16%	-16%
CCOC(=O)c1ccc(NC(=O)CC2C(=O)N(c3cccc(C)c3)C(=O)N2CCOC)cc1 (centres undefined)	-14%	5%
COc1ccc(CN2CCCN(CC(=O)Nc3ccc4c(c3)OCCO4)S2(=O)=O)cc1	-19%	12%
COc1cc2nc(NCc3ccc(C)cc3)n3nc(-c4ccccc4)nc3c2cc1OC	5%	4%
CCCCS(=O)CSc1nc(-c2cccs2)cc(-c2ccccc2)c1C#N (centres undefined)	13%	17%
CCOc1cc(C#N)ccc1OC(=O)c1ccccc1OC	21%	9%
COc1ccc(CN(Cc2ccco2)c2cnc(S(C)(=O)=O)nc2C(=O)Nc2ccc(F)cc2)cc1	-14%	13%

Assay outcomes from PubChem BioAssay.

Not all compounds are listed (hit frequency here may not be typical).
